# ClpP mod: qHTS Assay for Activators of ClpP; Potency, µM (top dose mostly 57.5 µM), without a hit: at the highest dose activity change, negative = active; ATP-dependent Clp protease proteolytic subunit (Bacillus subtilis (strain 168)), P80244; 340,000 tested, 1.9% active; purified B. subtilis ClpP, FRET peptide cleavage, 20 min; active = well fitted falling curve with a large enough effect; inconclusive = small, poorly fitted or top-dose-only effect; inactive = no such curve, though single readings can be large or run the other way; note: potency is the fitted concentration of half-maximal effect; the source files actives as falling curves though it sought activators and does not explain the sign; nearly all actives have a fitted effect of over 65% in size; many hits overshoot -100%
# Target sequence (P80244 whole entry, looked up): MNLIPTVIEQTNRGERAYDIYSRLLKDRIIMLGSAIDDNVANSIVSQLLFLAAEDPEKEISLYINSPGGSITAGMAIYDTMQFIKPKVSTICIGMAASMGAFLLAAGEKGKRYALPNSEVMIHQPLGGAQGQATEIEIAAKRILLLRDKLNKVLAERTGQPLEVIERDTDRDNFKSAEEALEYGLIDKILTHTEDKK
#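 Purified B. subtilis ClpP, 10 microg/mL final in Tris/HCl pH8 with KCl, BSA, glycerol and Tween-20, cleaved an Abz/nitrotyrosine-quenched decapeptide. Fluorescence (ex 320, em 430) was read at 0 and 20 min at room temperature. Delta was normalized to 5.8 microM ADEP and DMSO/no-enzyme controls.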
# TRPML1 agonist: agonists of human TRPML1 channel; AID 624414; 410,000 tested, 0.12% active; TRPML1-expressing cells, Ca2+ dye fluorescence, FDSS; host cell line not named in the record; reference of the full effect not given here; activation, % (concentration not given with the values); Q9GZU1; in the data active = activation above about 50%; inconclusive = about 30% to 50%; inactive = below about 30%; note: 0% is about no effect; the text of the record puts the active cut at 80%
# Target sequence (Q9GZU1 whole entry, looked up): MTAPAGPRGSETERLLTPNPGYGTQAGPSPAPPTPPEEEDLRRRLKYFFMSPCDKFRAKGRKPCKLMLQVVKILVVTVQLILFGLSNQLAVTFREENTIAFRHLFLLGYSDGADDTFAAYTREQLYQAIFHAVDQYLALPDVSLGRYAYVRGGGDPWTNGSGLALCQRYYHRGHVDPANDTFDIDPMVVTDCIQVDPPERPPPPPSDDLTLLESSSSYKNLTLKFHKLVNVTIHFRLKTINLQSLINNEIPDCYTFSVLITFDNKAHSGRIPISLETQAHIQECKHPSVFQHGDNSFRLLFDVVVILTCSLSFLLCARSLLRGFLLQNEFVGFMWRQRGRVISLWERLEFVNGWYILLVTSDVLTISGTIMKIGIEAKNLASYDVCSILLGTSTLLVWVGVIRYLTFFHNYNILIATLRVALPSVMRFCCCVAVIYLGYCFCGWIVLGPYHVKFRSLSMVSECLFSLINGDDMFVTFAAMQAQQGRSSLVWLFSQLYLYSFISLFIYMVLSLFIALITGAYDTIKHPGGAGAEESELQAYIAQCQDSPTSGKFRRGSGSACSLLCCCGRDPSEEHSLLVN
#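 Calcium fluorescence on an FDSS kinetic reader gave the read-out. Tet-induced TRPML1-DL cells were plated overnight, dye-loaded (Ca8 with quencher, 45-90 min, room temperature, dark), then read 110 s after compound addition, and again 110 s after 4uM final 54-4 (EC80).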
# gsp antagonist: gsp mutant antagonism. gsp-mutant cells, cAMP HTRF, 30 min; control for the full effect not named in the record. Potency, µM (doses to about 76.9 µM), for the others: at the top dose activity change, negative = inhibition, hits mostly inhibitors. 340,000 tested, 0.4% active; active = falling curve of any shape with a large fitted effect; inconclusive = falling curve, mostly with a smaller effect; inactive = flat or rising curve; cell line not stated here;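 note: intracellular cAMP measured with PDE inhibitor Ro 20-1724 present during compound exposure; potency is the fitted concentration of half-maximal effect; % is set by controls: 0 for no effect and ±100 for the full control effect; nearly all actives have a fitted effect of over 65% in size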
#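 G418-selected cells were plated in DMEM/10% FBS for 16-24 h at 37C, then treated with compounds plus the PDE inhibitor […] (300 uM solution added) for 30 min at 37C. Intracellular cAMP was measured by HTRF after 30 min lysis at room temperature.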
# The depositor's hits bear a star; ? = inconclusive; . = no result given.
SMILES,ClpP mod,TRPML1 agonist,gsp antagonist
O=C(OCC(O)C(O)C(O)COC(=O)c1ccccc1)c1ccccc1 (stereo not given),-0.3%,.,8%
COc1c(CC=C(C)C)c(O)cc2oc(=O)c3c4ccc(O)cc4oc3c12,5.2%,.,-4%
O=c1oc(-c2ccc(O)c(O)c2)cc2cc(O)cc(O)c12,4.7%,.,1%
CC(=O)OC1CCC2(C)C(CCC3C2CC(OC(C)=O)C2(C)C3C[C@@H]3O[C@]4(CC[C@@H](C)CO4)[C@@H](C)C32)C1 (stereo not given in full),-4.8%,.,10%
COc1cc2[nH]c3c(c2cc1OC)CCN1CCCC[C@@H]31,4.7%,.,-21%
COc1cc(C)c(C(=O)Oc2cc(C)c(C(=O)O)c(O)c2C)c(O)c1C,0.9%,.,?
COc1ccc([C@@H]2CC(=O)c3c(O)cc(O[C@@H]4OC(CO[C@@H]5OC(C)[C@H](O)[C@@H](O)[C@H]5O)[C@@H](O)[C@H](O)[C@H]4O)cc3O2)cc1O (stereo not given in full),-0.6%,.,13%
COc1c(O)c(=O)n2c3ccccc3c3ccnc1c32,-0.4%,.,?
CN1CCC23c4ccccc4NC1C21CCN(C)C3Nc2ccccc21,-3.1%,.,10%
COc1ccc(-c2cc(NC=O)c3ncc(-c4ccc(C(C)=O)cc4)n3c2)cn1,-24%,-0.6,.
COC(=O)[C@]12CCCCC=C1N(Cc1ccc(Cl)cc1Cl)C(=O)[C@H](CC(=O)NCC1CCCCC1)C2,-2.7%,-0.8,.
Nc1c(Cl)cc(C=O)cc1Cl,-2.2%,-0.3,.
COc1ccc(-c2nc3c4ccccc4ccn3c2Cc2cccc(F)c2)cc1OC,4.5%,-0.2,.
CC1(C(=O)Nc2cccc3c2CCCC3)CCN1C(=O)Cc1ccccc1Cl (stereo not given),-2.1%,-0.8,.
COc1ccccc1-c1cc(NC(C)=O)c2ncc(-c3ccc(S(C)(=O)=O)cc3)n2c1,5.4%,-0.7,.
COc1ccc(-c2cc3nc(NCCN4CCCC4)n(C)c(=O)c3s2)cc1OC,4.1%,-0.3,.
Cc1ccccc1S(=O)(=O)NC(=O)C1(C)CCN1C(=O)C1(c2ccccc2)CCCC1 (stereo not given),-0.9%,-0.9,.
Cc1cccc(C)c1-n1nnnc1C1c2ccccc2C(=O)N1CCCN1CCOCC1 (stereo not given),0.6%,-0.7,.
CCc1nc2ccc(C(=O)N(C)CCN(C)C)cn2c1N(CC)CCOC,-1.9%,-0.4,.
OC(c1cccc(Cl)c1)c1nc(/C=C/c2ccc(C(F)(F)F)cc2)cs1 (stereo not given),?,1.5,.
C[C@H](c1ccccc1)N1C[C@@H](COCc2ccccc2)Oc2cc(N3CC[C@@H](N(C)C)C3)ccc2S1(=O)=O,-9.9%,0.5,.
CCCCOCCCNC(=O)C[C@@H]1C[C@@]2(C(=O)OC)CCCCC=C2N(Cc2cccc3ccccc23)C1=O,-0.2%,0.3,.
CN(C)CCNC(=O)c1ccc(-c2cnn(C)c2)c2ccoc12,4.2%,-0.2,.
C/C=C/c1cccc(-c2nc(C(=O)N3CCCCC3)cc3c2[C@@H](CCO)N(C(=O)NC(C)C)C3)c1,-0.9%,-0.3,.
Cc1ccc(S(=O)(=O)N2CCN(c3nc(-c4ccncc4)nc4ccccc34)CC2)cc1,1.8%,-0.1,.

# The list continues:
SMILES,ClpP mod,TRPML1 agonist,gsp antagonist
Cc1c2cnccc2c(C)c2c1c1ccccc1n2CCOC(=O)c1ccccc1,?,2.6,.
Cc1ccccc1-c1cc2nc(NCCCN(C)C)n(C)c(=O)c2s1,-12%,0.3,.
Cc1cc(Br)cn2c(Cc3ccccc3C(F)(F)F)c(C3CCCCC3)nc12,-4.3%,-0.2,.
CC(C)C[C@H]1CN(CCCC[C@H]2CNC(=O)C(=O)N2CCC2CCCCC2)C(=O)C(=O)N1CC1CCCCC1,-1.4%,-1.3,.
O=C(NCc1cccs1)c1csc([C@@H]2O[C@H](CO)[C@H](O)[C@H](O)[C@H]2O)n1,0.1%,-0.3,.
CCOC(=O)[C@]12CCC=C1N(CCC1=CCCCC1)C(=O)[C@H](CC(=O)NCCCCc1ccccc1)C2,2.4%,-0.5,.
CCCCNC(=O)C1c2ccccc2OCC(=O)N1CC(F)(F)F (stereo not given),-3.9%,-0.3,.
CCOc1ccc(C=Nc2ccc(/C=C/c3ccnc4ccccc34)cc2)cc1OCC,-5.5%,9.9,.
CC1=C(C(=O)N(C)C)CC(CC(=O)NCCCN(C)C)C(=O)N1Cc1ccc(F)cc1 (stereo not given),-1.0%,0.0,.
CC(C)NC(=O)C1(C)CCN1C(=O)C1(c2ccccc2)CC1 (stereo not given),1.5%,-0.4,.
O=C1CC(c2ccco2)Cc2[nH]c(=O)c(C(=O)Nc3ccccc3)cc21 (stereo not given),-1.2%,-0.8,.
OCCNc1ncnc2c1ncn2[C@H]1CN(Cc2ccc(-c3ccccc3)cc2)C[C@@H](CO)O1,-0.2%,0.1,.
OC(c1cccc(Cl)c1)c1nc(/C=C/c2ccccc2)cs1 (stereo not given),-7.3%,-0.3,.
CC1(C(=O)NS(=O)(=O)C2CC2)CCCN(C(=O)COCc2ccccc2)C1 (stereo not given),0.9%,-0.2,.
COc1cccc(NC(=O)C2(C)CCCN2C(=O)C(C)C)c1 (stereo not given),2.6%,-1.0,.
O=NN(C(=O)NCc1cccnc1)C1CCCCC1,-0.2%,-0.5,.
CCOC(=O)C(=O)N(C)c1c(CC)nc2c(OCc3cccc(OC)c3)cccn12,-4.5%,-0.3,.
Cc1ccc2nc(/C=C/c3ccc(N(C)C)cc3)ccc2c1,-3.6%,20,.
Cc1cnc(CNC(=O)c2csc([C@@H]3C[C@H](O)[C@@H](CO)O3)n2)cn1,-0.6%,-0.1,.
O=C(NCCc1ccc(O)cc1)c1[nH]c(C(F)(F)F)nc1-c1ccccc1,0.6%,0.1,.
Cc1sc2ccccc2[n+]1CCCC[n+]1c(C)sc2ccccc21,-1.2%,-0.5,.
CN(C)c1c(Cl)cc(/C=C/c2ccnc3ccccc23)cc1Br,-0.6%,-0.9,.
COc1cccc(CNc2nc3cc(-c4ccc(OC)cc4C)sc3c(=O)n2C)c1,?,-0.2,.
O=C(NCc1ccccc1Cl)c1ccc2nc([C@H]3C[C@H](O)[C@@H](CO)O3)[nH]c2c1,-4.8%,0.9,.
NC(Cc1ccccc1)c1csc(NC(=O)c2cccc(OC(F)(F)F)c2)n1 (stereo not given),-9.4%,0.1,.

# A few values from the list.
# CC1(C(=O)NS(=O)(=O)C2CC2)CCCN(C(=O)COCc2ccccc2)C1 (stereo not given) in ClpP mod shows 0.9%
# CN(C)c1c(Cl)cc(/C=C/c2ccnc3ccccc23)cc1Br in TRPML1 agonist shows -0.9

# Continuation.
SMILES,ClpP mod,TRPML1 agonist,gsp antagonist
ClC(Cl)(Cl)C1=NCc2nnn(Cc3ccccc3)c2N1,-1.6%,-0.7,.
OC(CBr)C[n+]1cccc2cc(Br)ccc21 (stereo not given),-17%,1.1,.
COc1ccccc1CNc1nc(Oc2cccc(F)c2)c2sccc2n1,?,-0.1,.
C[C@H]1COc2cccc(N3CCN(Cc4ccccc4F)CC3)c2S(=O)(=O)N1,-1.0%,-0.3,.
CCOC(=O)C1CCCN(C(=O)c2ccc(SC(F)(F)F)cc2)CC1 (stereo not given),-0.1%,-1.0,.
O=C(Nc1nnc([C@@H]2C[C@H](O)[C@@H](CO)O2)s1)Nc1cccc2c1CCCC2,-4.1%,-0.4,.
O=C(Nc1ccc(Cl)cc1)C1Cc2c(-c3ccc4c(c3)OCO4)ccnc2O1 (stereo not given),4.3%,-0.5,.
COC(=O)c1ccc2nc(C3CCCCC3)c(Cc3ccc(OC)cc3C)n2c1,-6.9%,0.0,.
Cc1ccccc1-c1cnc(C(O)c2ccc(Cl)cc2)[nH]1 (stereo not given),2.7%,-0.6,.
C#CCNC(=O)c1ccc2sc([C@H]3C[C@H](O)[C@@H](CO)O3)nc2c1,0.1%,-0.4,.
CN(Cc1ccccc1)N=Nc1nc[nH]c1C(N)=O,0.0%,-0.7,.
CCCNC(=O)c1cc(C2CCCCN2S(=O)(=O)c2ccccc2)on1 (stereo not given),1.6%,-0.9,.
O=C(O)c1cc2c(ncc3c(=O)n(-c4ccccc4)[nH]c32)s1,1.0%,-0.4,.
COc1cccc(Cn2c3ccc(NC(=O)Cc4cc(OC)ccc4OC)cc3c(=O)n2C)c1,4.4%,-1.0,.
Cc1cccc(C)c1NC(=O)C1(C)CCC(=O)N1C1CC1 (stereo not given),1.7%,-0.7,.
CCOc1ccc(CCN2C(=S)N([C@@H](Cc3ccc(O)cc3)CN3CCC[C@@H]3CN3C(=S)NC[C@@H]3Cc3ccc(O)cc3)C[C@@H]2Cc2ccc(O)cc2)cc1,-2.8%,-0.4,.
CC(=O)Nc1cc(-c2cccc(F)c2)cn2c(-c3ccc(S(C)(=O)=O)cc3)cnc12,4.9%,-0.8,.
Cc1cc2nc(-c3ccc(F)cc3)c(Cc3ccccc3)n2c(C)c1Br,-0.2%,-0.7,.
COCCCNC(=O)[C@H](Cc1ccccc1)NC(=O)CC[C@H]1O[C@@H](n2ccc(=O)[nH]c2=O)[C@H](O)[C@@H]1O,-8.0%,-0.3,.
COc1ccccc1/C=C1\C=Cc2ccccc21,-6.4%,-0.1,.
CCCNC(=O)C1(C)CCN1C(=O)Cc1ccc(C(C)C)cc1 (stereo not given),0.2%,-0.3,.
COc1cccc(OCc2cc(C3Nc4ccccc4C(=O)N3Cc3ccccc3)ccc2OC)c1 (stereo not given),4.5%,-0.5,.
O=C(NS(=O)(=O)c1ccc2ccc(S(=O)(=O)NCCSc3ccccc3)cc2c1)c1cccc2ccccc12,-1.1%,-0.2,.
CC(C)(C)n1nnnc1C(c1ccccc1)N1CCN(CCN2CCOCC2)CC1 (stereo not given),1.4%,0.2,.
O=[N+]([O-])c1nccn1CCCCCCCCCCCN1CCOCC1,0.0%,0.5,.
CCOC(=O)c1cc2c(c(-c3cccc(-c4cc5ccccc5o4)c3)n1)[C@@H](CCO)N(S(=O)C(C)(C)C)C2 (stereo not given in full),-0.2%,0.5,.

# Of the compounds above, ten have a Cl atom.
SMILES,ClpP mod,TRPML1 agonist,gsp antagonist
COC(=O)[C@]12CCCCC=C1N(Cc1ccc(Cl)cc1Cl)C(=O)[C@H](CC(=O)NCC1CCCCC1)C2,-2.7%,-0.8,.
Nc1c(Cl)cc(C=O)cc1Cl,-2.2%,-0.3,.
CC1(C(=O)Nc2cccc3c2CCCC3)CCN1C(=O)Cc1ccccc1Cl (stereo not given),-2.1%,-0.8,.
OC(c1cccc(Cl)c1)c1nc(/C=C/c2ccc(C(F)(F)F)cc2)cs1 (stereo not given),?,1.5,.
OC(c1cccc(Cl)c1)c1nc(/C=C/c2ccccc2)cs1 (stereo not given),-7.3%,-0.3,.
CN(C)c1c(Cl)cc(/C=C/c2ccnc3ccccc23)cc1Br,-0.6%,-0.9,.
O=C(NCc1ccccc1Cl)c1ccc2nc([C@H]3C[C@H](O)[C@@H](CO)O3)[nH]c2c1,-4.8%,0.9,.
ClC(Cl)(Cl)C1=NCc2nnn(Cc3ccccc3)c2N1,-1.6%,-0.7,.
O=C(Nc1ccc(Cl)cc1)C1Cc2c(-c3ccc4c(c3)OCO4)ccnc2O1 (stereo not given),4.3%,-0.5,.
Cc1ccccc1-c1cnc(C(O)c2ccc(Cl)cc2)[nH]1 (stereo not given),2.7%,-0.6,.

# Source: PubChem (National Center for Advancing Translational Sciences (NCATS))

# Some of the compounds tested; the hit share may differ from the screen's.
